VDR inh – blocks the human vitamin D receptor. hit rate 0.93% among 400,000. P11473. VDR-SRC2-3 peptide fluorescence polarization, 2 h. Potency, µM, inactives show max response, negative = inhibition, actives largely listed as inhibitors. AID 504847; active = well fitted inhibition curve with a large enough effect; inconclusive = small, poorly fitted or top-dose-only effect, or another doubt; inactive = no such curve, though single readings can be large or run the other way; also: series mostly up to about 120 µM
Target sequence (P11473 whole entry, looked up): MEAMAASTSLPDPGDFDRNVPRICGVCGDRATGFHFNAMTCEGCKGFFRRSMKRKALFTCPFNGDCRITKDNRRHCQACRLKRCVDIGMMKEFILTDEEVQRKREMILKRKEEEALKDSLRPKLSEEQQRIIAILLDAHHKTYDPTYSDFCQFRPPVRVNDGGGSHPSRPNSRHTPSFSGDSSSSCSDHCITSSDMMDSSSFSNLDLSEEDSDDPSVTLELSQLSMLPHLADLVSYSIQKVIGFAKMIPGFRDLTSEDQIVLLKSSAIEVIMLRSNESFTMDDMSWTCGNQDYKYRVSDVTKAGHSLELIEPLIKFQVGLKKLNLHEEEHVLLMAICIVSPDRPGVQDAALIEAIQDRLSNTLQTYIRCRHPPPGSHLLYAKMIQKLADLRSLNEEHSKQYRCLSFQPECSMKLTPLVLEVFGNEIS
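After 23 nl compound addition and a short centrifugation, plates sat for 2 hours at ambient temperature; polarization of fluorescence then indicated loss of VDR binding to peptide SRC2-3.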
* hit, by the source's call; ? = inconclusive. % is scaled to controls: 0 for no effect and ±100 for the full control effect; potency is read from the fitted curve at half-maximal effect. The list is partial; rates above refer to the full screens.

SMILES	VDR inh
CC(=O)c1cccc(NC(=O)Cn2nc(C)n3cccc3c2=O)c1	4%
CSCCC(NS(=O)(=O)c1ccc2[nH]c(=O)c(=O)[nH]c2c1)C(=O)O (stereo not given)	-9%
CC(=O)Oc1cccc(C2C3=C(CC(C)(C)CC3=O)Nc3ccccc3N2C(C)=O)c1 (stereo not given)	-5%
Cc1ccc2nc(C)cc(Nc3ccc4c(c3)OCCO4)c2c1	7%
O=C1/C(=C/c2ccc3c(c2)OCO3)CCC/C1=C\c1ccc2c(c1)OCO2	-7%
COc1ccc(C(=O)COC(=O)CNC(=O)c2ccc(C)s2)c(OC)c1	1%
COc1ccc(C(=O)N/C(=C\c2cn(S(=O)(=O)N(C)C)c3ccccc23)C(=O)NC(C)C)cc1	12%
Cc1nn(-c2ccccc2)c(C)c1/C=N\N1CCN(c2ccc(Cl)cc2)CC1	10%
O=C1CCCC2=C1C(c1cccs1)Nc1ccccc1N2 (stereo not given)	0%
COC(=O)CCC(=O)OC1(C)C(=O)C=C2C=C(C3CC3)N(CCc3ccccn3)C=C2C1=O (stereo not given)	0%
CC1CC(C)CN(CCCNC(=O)c2ccc(CS(=O)(=O)Cc3ccccc3F)o2)C1 (stereo not given)	-16%
CCOC(=O)C1=C(c2ccccc2)N=C2SCC(=O)N2C1c1ccc(O)c(OC)c1 (stereo not given)	27%
CCOC(=O)C1CCN(C(=O)COc2ccc(S(=O)(=O)NC(C)C)cc2Cl)CC1	7%
O=C(Nc1ccc2cn[nH]c2c1)c1ccccc1F	-17%
O=C(Nc1cc([N+](=O)[O-])ccc1N1CCOCC1)c1ccco1	-11%
CC(=O)c1ccc(NC(=O)c2noc3c2CSc2ccccc2-3)cc1	2%
CCCCn1c(SCC(=O)O)nc2ccccc21	-6%
CCC(CC)C(=O)Nc1nnc(CCc2ccccc2)s1	-10%
CC1N=C2c3ccccc3N=C(SCC(=O)NCc3ccc(Cl)cc3)N2C1=O (stereo not given)	9%
CCOc1ccc(-n2c(-c3ccccc3)nnc2-c2ccccc2)cc1	-15%
Cc1cccc(CC(C)NC(=O)c2cc(COc3ccc(F)cc3F)on2)n1 (stereo not given)	14%
COc1ccc(NC(=O)Nc2ccc(F)cc2)cn1	-6%
C=CCN(C(=O)Cn1nnc2ccccc21)C(C(=O)NCCOC)c1ccc(OC)cc1OC (stereo not given)	-23%
CCN(Cc1ccccc1)S(=O)(=O)c1ccc(C(=O)N(CCCN(C)C)c2nc3c(C)c(C)ccc3s2)cc1	2%
Cc1ccc(C)c(CSCc2nc3ccccc3[nH]2)c1	-9%
O=C(CSc1nc2ccsc2c(=O)n1Cc1ccc(F)cc1)NCc1ccc(Cl)cc1	4%
Cc1ccccc1NCN1C(=O)C2C3C=CC(C3)C2C1=O (stereo not given)	9%
COc1cccc(C(=O)NNC(=O)C(=O)Nc2cccc(Cl)c2C)c1	27%
COc1ccc(CN(C)C(=O)c2cnc(C)cn2)c(OC)c1OC	5%
COC(=O)c1c(Oc2ccc(C(C)=O)cc2)nnc(-c2ccccc2)c1-c1ccccc1	18%
CC(C)Cc1nnc(NC(=O)c2ccc3c(c2)OCCO3)s1	-12%
CCOc1ccc(-c2nnc(SCC(=O)NC3CCCC3)nc2-c2ccc(OCC)c(OC)c2)cc1OC	4%
CCOC(=O)C(NCc1ccco1)(NC(=O)c1ccccc1)C(F)(F)F (stereo not given)	-2%
CCOC(=O)c1c2c(n(Cc3ccccc3)c1C)C(=O)C(=O)c1ccccc1-2	50µM*
C#CCOc1ccc(CNC[C@H]2O[C@@H](n3cnc4c(N)ncnc43)[C@H](O)[C@@H]2O)cc1	19%
COC1OC2COC(c3ccccc3)OC2C(OC(C)=O)C1OC(C)=O (stereo not given)	-2%
COc1ccc(C(=O)C2CCCN(C(=O)c3ccc4nccnc4c3)C2)c(C)c1 (stereo not given)	3%
O=C1c2ccccc2C(O)N1Cc1ccccc1 (stereo not given)	-4%
CC1CCc2onc(C(=O)N3CCN(c4ccc(Cl)cc4)CC3)c2C1 (stereo not given)	23%
COc1ccccc1NC(CC(=O)c1ccccc1)C(=O)OCC(=O)c1ccc(F)cc1 (stereo not given)	-20%

Looked up above.
VDR inh result of CCOC(=O)C(NCc1ccco1)(NC(=O)c1ccccc1)C(F)(F)F (stereo not given) : -2%
VDR inh result of COc1ccc(C(=O)C2CCCN(C(=O)c3ccc4nccnc4c3)C2)c(C)c1 (stereo not given) : 3%

Additional structures:
SMILES	VDR inh
O=c1cnn(Cc2c(Cl)cccc2Cl)c2ccccc12	7%
CCn1c2c(c(=O)n3ncc(C(=O)Nc4ccc(F)c(Cl)c4)c13)CN(Cc1ccc(OC)cc1)CC2	-7%
O=C(Nc1ccc(-c2csc(Nc3ccc(Cl)cc3)n2)cc1)c1ccccc1	-15%
Cc1cc(C)cc(NC(=O)Nc2ccc(N3CCCCC3)cc2)c1	4%
CCN(CC(=O)NCc1ccc(F)cc1)C(=O)c1cccc(S(=O)(=O)N(C)c2ccc(OC)cc2)c1	6%
CN(CC(=O)N1CC=C(c2ccccc2)CC1)S(=O)(=O)c1ccc2c(c1)c(=O)n(C)c(=O)n2C	4%
COc1ccc(CCN(Cc2nc3ccccc3c(=O)[nH]2)C(=O)c2ccco2)cc1	-8%
Cc1ccc(CS(=O)(=O)Cc2ccc(C(=O)NCCCN3CC(C)CC(C)C3)o2)cc1 (stereo not given)	-4%
O=C(NC(Cc1ccccc1)C(=O)O)/C(=C/c1cccc([N+](=O)[O-])c1)NC(=O)c1ccco1 (stereo not given)	1%
Cc1nc2sc(C(=O)N(C)Cc3ccccc3)c(NC(=O)c3ccccc3)c2c(C)c1Cl	3%
COc1cc(/C=N/Nc2ccc(Cl)c(C(=O)O)c2)ccc1OC(=O)c1ccccc1F	-20%
CC(C)C(NC(=O)/C(=C\c1ccco1)NC(=O)c1ccco1)C(=O)O (stereo not given)	3%
CCOC(=O)c1nnc(-c2cccs2)nc1Oc1ccc(Cl)cc1	-13%
O=C(CSc1ccc(Cl)cc1)OCc1nnc(-c2ccccc2)o1	-9%
O=C(CSc1nc2c([nH]c3ccccc32)c(=O)n1-c1ccc(Cl)cc1)N1CCCCCC1	2%
CC(C)C(NC(=O)c1ccc(F)cc1)C(=O)Nc1cccnc1 (stereo not given)	3%
Cc1cc2[nH]c(=O)c(=O)[nH]c2cc1S(=O)(=O)N1CCC(C)CC1	-2%
Cc1ccccc1NC(=O)C1CCN(C2=NS(=O)(=O)c3ccccc32)CC1	1%
CCN1CCN(C(=O)C2c3cc(OC)c(OC)cc3C(=O)N(C)C2c2ccc(SC)cc2)CC1 (stereo not given)	7%
N#CCCN(C(=O)CSc1ccc2c(c1)OCCO2)c1ccccc1	-23%

An excerpt from above in order of formula weight, smallest number first.
SMILES	VDR inh
COc1ccc(CCN(Cc2nc3ccccc3c(=O)[nH]2)C(=O)c2ccco2)cc1	-8%
C#CCOc1ccc(CNC[C@H]2O[C@@H](n3cnc4c(N)ncnc43)[C@H](O)[C@@H]2O)cc1	19%
O=C(CSc1nc2ccsc2c(=O)n1Cc1ccc(F)cc1)NCc1ccc(Cl)cc1	4%
CCn1c2c(c(=O)n3ncc(C(=O)Nc4ccc(F)c(Cl)c4)c13)CN(Cc1ccc(OC)cc1)CC2	-7%

7 records drawn at random from those above, as already listed:
SMILES	VDR inh
O=C(CSc1nc2ccsc2c(=O)n1Cc1ccc(F)cc1)NCc1ccc(Cl)cc1	4%
N#CCCN(C(=O)CSc1ccc2c(c1)OCCO2)c1ccccc1	-23%
CCOC(=O)c1c2c(n(Cc3ccccc3)c1C)C(=O)C(=O)c1ccccc1-2	50µM*
CCN(Cc1ccccc1)S(=O)(=O)c1ccc(C(=O)N(CCCN(C)C)c2nc3c(C)c(C)ccc3s2)cc1	2%
Cc1cccc(CC(C)NC(=O)c2cc(COc3ccc(F)cc3F)on2)n1 (stereo not given)	14%
O=C(Nc1ccc(-c2csc(Nc3ccc(Cl)cc3)n2)cc1)c1ccccc1	-15%
Cc1nc2sc(C(=O)N(C)Cc3ccccc3)c(NC(=O)c3ccccc3)c2c(C)c1Cl	3%

Remaining list, next part
SMILES	VDR inh
CCOC(=O)N1CCN(C(=O)c2oc(=O)c3ccccc3c2-c2ccc(C)cc2)CC1	-11%
Cc1ccc(S(=O)(=O)N(C)C)cc1NC(=O)c1cc(-c2ccco2)nc2ccccc12	-20%
CCCCN(C)C(=O)c1nc2ccccn2c1CN1CCSCC1	9%
Cc1ccc(-c2nc3ncccc3o2)cc1NC(=O)c1cccnc1	-12%
O=C(CCn1nnc2ccccc21)NNC(=O)C1CCCCC1	-2%
Cc1ccc2c(C)c(C(=O)N3CCN(c4ncccn4)CC3)oc2c1C	-2%
Cc1ccc[n+](CC(=O)N2CCCCC2)c1C	-1%
Cc1cc(Sc2nc(NC(C)C)nc(NC(C)C)n2)nc(Cl)n1	-6%
CCN(CC(=O)NC1CCS(=O)(=O)C1)C(=O)c1ccc(S(=O)(=O)N(CC)CC)cc1 (stereo not given)	-24%
COC(=O)[C@@H](Cc1ccc(O)cc1)NC(=O)[C@H]1CCC(=O)N1C(=O)OCc1ccccc1	4%
CSc1nc(NS(=O)(=O)c2cc(C)c(Cl)cc2Cl)nn1C	-26%
O=C(OCC(=O)N1CCN(S(=O)(=O)c2ccc(Cl)cc2)CC1)c1ccc([N+](=O)[O-])o1	1%
O=C(Cc1ccc([N+](=O)[O-])cc1)NCC1CCCO1 (stereo not given)	-8%
CCCC(=O)Nc1nnc(-c2ccco2)s1	0%
CC(=O)c1cccc(-n2c(=O)c3c4c(sc3n(CC(=O)Nc3ccccc3F)c2=O)CN(C(C)=O)CC4)c1	-15%
CCC1Sc2ccccc2N(CC(=O)NCc2ccc3c(c2)OCO3)C1=O (stereo not given)	-7%
COCCN(C(=O)CCC(=O)Nc1ccccn1)C(C(=O)NCCC(C)C)c1ccc(C)cc1 (stereo not given)	-1%
CC1CCN(c2cc(N)c(Cl)cc2[N+](=O)[O-])CC1	-8%
COc1ccc(/C(C)=N\NS(C)(=O)=O)c(OC)c1	12%
COCCCNC(=S)N/N=C/c1ccccc1O	-8%
Cc1cc(-c2cccs2)n[nH]1	-9%
O=C(Nc1ccc(S(=O)(=O)NCc2ccco2)cc1)c1ccncc1	-15%
NC1=NN=C(N2N=C(c3ccccc3)CC2(O)C(F)(F)F)n2ncnc2C1 (stereo not given)	?
CCC1CCCCN1C(=O)CSc1n[nH]c(-c2ccccc2Cl)n1 (stereo not given)	11%
O=[N+]([O-])c1ccc(C2CCCC/C2=N/OCc2ccc(F)cc2)c([N+](=O)[O-])c1 (stereo not given)	4%
O=C(NC1CC(=O)N(c2ccc(F)cc2)C1)C(=O)c1c[nH]c2ccccc12 (stereo not given)	-10%
CCN1CCN(c2c(Cl)cccc2NC(=O)c2ccc3c(c2)OCCO3)CC1	-1%
Cc1cc(C(=O)N2CCCC(C(=O)c3ccc(Oc4ccccc4)cc3)C2)n[nH]1 (stereo not given)	2%
CC1CC(C)CN(C(=O)C2CCCN(S(=O)(=O)c3cccc4nonc34)C2)C1 (stereo not given)	-5%
Cc1cc(/C=N/n2cnnc2)c(C)n1-c1ccc(Cl)cc1	?
CN(c1ccccc1C(=O)Nc1ccccc1C(=O)NCc1ccco1)S(C)(=O)=O	-8%
CCC1CN(C(=O)C2CCN(S(=O)(=O)c3c(C)noc3/C=C/c3ccccc3F)CC2)c2cc(Cl)ccc2O1 (stereo not given)	8%
COc1ccc(C(=O)Nc2ccc3c(c2)nc(CN2CCN(C(C)=O)CC2)n3C)cc1	0%
O=C(COC(=O)c1cccs1)Nc1cc(S(=O)(=O)N2CCOCC2)ccc1Cl	-1%
CCC(C)NC(=O)C1CCN(S(=O)(=O)c2ccc(OC)cc2)CC1 (stereo not given)	-7%
CC(=O)c1ccc2noc(-c3ccc(C)cc3)c2c1	?
O=C(COC(=O)/C=C/c1cccc(F)c1)Nc1ccc(Cl)cn1	-3%
O=C(CSc1ncc(C(F)(F)F)cc1Cl)N1CCN(S(=O)(=O)c2ccccc2)CC1	1%
O=C(OCc1ccc(COC(=O)c2cccnc2Cl)cc1)c1cccnc1Cl	16%
Cc1onc(-c2c(F)cccc2Cl)c1C(=O)NC1CCCCCC1	2%
CCCc1nnc(NC(=O)CCC(=O)N2CCN(c3nc(C)cc(C)n3)CC2)s1	-7%
Cc1cccc(NC(=O)c2cc([N+](=O)[O-])ccc2NC2CCCCC2)c1	-12%
Cc1noc(C)c1S(=O)(=O)N(CC(=O)Nc1ccc2c(c1)OCO2)c1ccc(C(C)C)cc1	9%
COc1ccc(N(C(C)C(=O)N/N=C/c2ccc(OCC(C)C)cc2)S(C)(=O)=O)cc1 (stereo not given)	15%
CCCCN(CCCC)Cc1ccc(C(=O)NNC(=O)Nc2ccccc2)o1	-3%
CNC(=O)c1c(NC(=O)c2cccc(N3C(=O)CCC3=O)c2)sc2c1CCCC2	13%
CC1(OC(=O)C2CCCC2)C(=O)C=C2C=C(c3ccsc3)N(Cc3ccccc3)C=C2C1=O (stereo not given)	-16%
COc1ccc2cc1Oc1ccc(cc1)C[C@H]1c3cc(c(OC)cc3CCN1C)Oc1c(O)c(OC)cc3c1[C@H](C2)N(C)CC3	27%
COC(=O)[C@@]1(Cc2ccccc2)[C@H]2C(=O)N(Cc3ccccc3)C(=O)[C@H]2[C@H]2CN=C(SCc3ccccc3)N21	8%
COc1ccc(CCNC(=O)CN(c2ccc(C)cc2)S(=O)(=O)c2c(C)noc2C)cc1OC	-8%
Going on with the list.
SMILES	VDR inh
c1coc(-c2nc3n(n2)C2(CCCCC2)[C@@H]2CCCC[C@@H]2N3)c1	9%
O=[N+]([O-])c1cccc2c(S(=O)(=O)N3CCOCC3)cccc12	6%
CN(C)C(CNC(=O)c1ccc(S(=O)(=O)Nc2cccc(C(F)(F)F)c2)cc1)c1ccco1 (stereo not given)	-18%
CCN(CC)S(=O)(=O)c1ccc(O)c(NS(=O)(=O)c2ccccc2F)c1	79µM*
CCNC(=O)C1CC(=O)N(c2ccc(Br)cc2)C1 (stereo not given)	-18%
Clc1ccc(SCc2cn3ccccc3n2)cc1	-7%
CCCOc1ccc(S(=O)(=O)NCCCN2CCOCC2)c2ccccc12	3%

Bioassay records (PubChem BioAssay)
